High-throughput results as filed in PubChem BioAssay.
KCNK3 block: human KCNK3 channel inhibitors, primary screen, CHO cells, FluxOR thallium flux, B-score. Potassium channel subfamily K member 3 (Homo sapiens), O14649. FluxOR fluorescence; active compounds read low. B-score at 10 µM. AID 602410, 2012. 340,000 compounds, 0.84% hits;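 active = B-score under library mean minus 4 SD, starting fluorescence ratio at most library mean plus 5 SD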;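 also: more negative B-score means stronger inhibition of thallium flux through KCNK3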
Dyrk1A ADPGlo: rat Dyrk1A kinase inhibitors, primary screen, biochemical, single point, plate reader; AID 504441, 2011; Dual specificity tyrosine-phosphorylation-regulated kinase 1A (Rattus norvegicus), Q63470; 310,000 compounds, 0.43% hits; ADP-Glo luminescence, NFATc1 peptide; inhibition, % at 12.5 µM; in the data active = inhibition above about 50%;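 also: plate controls were vehicle with enzyme for no effect and no enzyme for full effect; many of its hits are not listed in these tables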
Platelet DG rel: inhibitors of platelet dense granule secretion, primary screen, cell-based, MLPCN, human platelets. 300,000 compounds, 0.22% hits. inhibition, %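 (compounds screened at 7.5 µM in platelet-rich plasma)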. human platelet-rich plasma, SFLLRN dense granule ATP release, luminescence;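 active = mean replicate score, as percent of positive control, at or above 50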
KCNQ1 inh: inhibitors of human KCNQ1 channel, primary screen, cell-based, thallium flux, high-throughput | 310,000 compounds, 1.3% hits | CHO-K1 KCNQ1, FluxOR thallium flux fluorescence; active compounds read high | B-score at 10 µM | AID 2642, 2010 | Potassium voltage-gated channel subfamily KQT member 1 (Homo sapiens), P51787;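 active = compounds whose thallium flux B-score, printed positive for inhibition, exceeds three library SD while starting fluorescence stays within three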;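 also: channel opened by potassium depolarization with thallium stimulus after 20 min compound exposure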
Target sequence (P51787 whole entry, looked up): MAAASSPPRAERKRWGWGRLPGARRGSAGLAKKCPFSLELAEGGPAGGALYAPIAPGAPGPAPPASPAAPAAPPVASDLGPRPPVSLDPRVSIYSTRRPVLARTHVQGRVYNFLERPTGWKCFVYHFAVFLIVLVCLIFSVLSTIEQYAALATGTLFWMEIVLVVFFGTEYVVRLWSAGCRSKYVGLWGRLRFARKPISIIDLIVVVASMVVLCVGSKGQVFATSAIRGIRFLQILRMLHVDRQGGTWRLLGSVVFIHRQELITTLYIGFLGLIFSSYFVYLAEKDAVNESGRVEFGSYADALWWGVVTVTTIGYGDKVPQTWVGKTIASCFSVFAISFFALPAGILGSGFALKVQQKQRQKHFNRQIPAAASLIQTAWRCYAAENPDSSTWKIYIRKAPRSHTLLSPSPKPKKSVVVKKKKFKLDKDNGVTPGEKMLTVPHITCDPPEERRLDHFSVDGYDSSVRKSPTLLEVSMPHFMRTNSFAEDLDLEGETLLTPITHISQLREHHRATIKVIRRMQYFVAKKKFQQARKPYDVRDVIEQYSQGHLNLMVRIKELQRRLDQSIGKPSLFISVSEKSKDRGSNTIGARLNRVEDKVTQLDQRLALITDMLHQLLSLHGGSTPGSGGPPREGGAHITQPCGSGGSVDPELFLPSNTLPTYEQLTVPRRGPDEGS
TRPC4 inh: inhibitors of mouse TRPC4 channel, primary screen, Fluo4 calcium, HEK293 TRPC4beta/mu-opioid cells. Short transient receptor potential channel 4 (Mus musculus), Q9QUQ5. DAMGO-evoked Fluo4 calcium flux; active compounds read low. B-score at 10 µM. 300,000 compounds, 0.39% hits;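 active = B-score over 3 SD under the library average, no early fluorescence shift, positive overall ratio signal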
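test system = HEK293 cells with stable TRPC4beta plus mu-opioid receptor expression | detection = Fluo4 Ca2+ flux fluorescence | read-out = integrated fluorescence ratio relative to baseline, converted to per-well B score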
PolyA inh: polyadenylation inhibitors in yeast reporter cells, primary screen, luminescence, S. cerevisiae; S. cerevisiae SKY197-pL101 polyadenylation reporter, beta-gal luminescence; efflux-impaired pdr1/pdr3 knockout yeast; score 100 = 6 SD above DMSO; calls only at 12 µM; 300,000 compounds, 0.02% hits;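 active = lowest replicate activity score at least 50, where 100 means six control SD above control mean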;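 also: yeast exposed to compound for 9 h at 30 °C; higher score means more reporter readthrough which indicates perturbed polyadenylation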
TRPC4 PAM: positive allosteric modulators of TRPC4, primary screen, cell-based, mouse TRPC4beta, HEK293 mu-opioid, Fluo-4 calcium; Short transient receptor potential channel 4 (Mus musculus), Q9QUQ5; DAMGO EC20, Fluo-4 Ca2+ flux; active compounds read high; B-score at 10 µM; 310,000 compounds, 0.42% hits; AID 2227, 2009;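 active = B-score of calcium response area above 5 SD of library B-scores, with initial fluorescence ratio within 5 SD of library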;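 also: B-score of integrated fluorescence ratio over time as area under calcium response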
KCNK9 block: KCNK9 potassium channel inhibitors, primary screen, HEK293 cells, thallium flux. Potassium channel subfamily K member 9 (Homo sapiens), Q9NPC2. FluxOR thallium flux fluorescence; active compounds read low. B-score at 10 µM. 310,000 compounds, 1.2% hits;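 active = ratio B-score over 3 SD below the library mean, with starting fluorescence within 5 SD of its mean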;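 also: negative B-score means less thallium flux so channel inhibition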
Target sequence (Q9NPC2 whole entry, looked up): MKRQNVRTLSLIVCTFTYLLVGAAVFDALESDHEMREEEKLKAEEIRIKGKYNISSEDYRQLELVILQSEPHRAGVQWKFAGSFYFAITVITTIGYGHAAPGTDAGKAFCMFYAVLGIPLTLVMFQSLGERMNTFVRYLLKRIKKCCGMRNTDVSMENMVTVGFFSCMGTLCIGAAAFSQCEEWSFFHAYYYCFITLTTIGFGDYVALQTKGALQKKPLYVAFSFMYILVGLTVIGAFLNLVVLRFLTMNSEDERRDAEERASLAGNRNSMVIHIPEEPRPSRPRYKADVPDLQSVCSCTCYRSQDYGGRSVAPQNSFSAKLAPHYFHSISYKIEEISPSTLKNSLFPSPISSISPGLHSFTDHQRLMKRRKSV
TRPC4 agonist: activators of mouse TRPC4 channel, primary screen, Fluo4 calcium, HEK293 TRPC4beta/mu-opioid cells | Short transient receptor potential channel 4 (Mus musculus), Q9QUQ5 | Fluo4 calcium fluorescence; active compounds read high | B-score at 10 µM | 310,000 compounds, 0.49% hits;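 active = B-score above 5 SD of library B-scores, and initial fluorescence ratio not above library mean plus 5 SD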;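 also: positive B-score marks a calcium rise read as TRPC4 activation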
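Assay system: HEK293 stable line with TRPC4beta plus mu-opioid receptor; schedule: 45 min room-temperature Fluo4 loading, 110 s read; technique: kinetic Fluo4 calcium fluorescence; evaluation: integrated baseline-normalised fluorescence ratio, converted to per-well B score; controls: buffer (low) and maximal DAMGO (high)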
KCNQ1 act: potentiators or activators of KCNQ1 channel, primary screen, cell-based, thallium flux, high-throughput; AID 2648, 2010; CHO-K1 KCNQ1, thallium flux FluxOR fluorescence; active compounds read high; 310,000 compounds, 0.35% hits; B-score at 10 µM;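 active = fluorescence ratio B-score, a plate-corrected score, at least three library SD, with initial intensity B-score within 5 SD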
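assay system = KCNQ1-transfected CHO-K1 cells | medium = assay buffer with matched DMSO | probe or stimulus = depolarizing K+/Tl+ stimulus, K2SO4 and Tl2SO4 each 12.5 mM in 5x stock | dosing = single dose | incubation = dye 90 min, compound 20 min, room temperature | detection = kinetic FluxOR fluorescence, 10 s baseline plus 110 s post-stimulus | evaluation = ratio B score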
* marks the source's active call; other numbers are inactive results; i = inactive; . = not tested or not shown; & = joins results of further samples.

SMILES	KCNK3 block	Dyrk1A ADPGlo	Platelet DG rel	KCNQ1 inh	TRPC4 inh	PolyA inh	TRPC4 PAM	KCNK9 block	TRPC4 agonist	KCNQ1 act
CCc1cc(C(N)=S)ccn1	i	4&0	1	i	i	i	i	i	i	i
Cc1ccc(SCc2nc(-c3cccnc3)no2)cc1	i	10	10	i	i	i	i	i	i	i
Cc1ccc(CNC(=O)C(NS(=O)(=O)c2cccc3nsnc23)C(C)C)cc1 (stereo unspecified)	i	-1	-2	i	i	i	i	i	i	i
O=C(/C=C/c1ccco1)Nc1nc(-c2ccccc2)cs1	i	-1	3	i	i	i	i	i	i	i
CCCCCC[C@@H]([C@@H](C)O)n1cnc2c(N)ncnc21	i	-3	5	i	i	i	i	i	i	i
CNCCCC12CCC(c3ccccc31)c1ccccc12	i	1&-2&3	0&-5&1	i	i	i	i	i	i	i
CCSc1nnc(NC(=O)CSc2nnc(Cc3cccn3C)n2-c2ccc(C)cc2)s1	i	-3	-3	i	i	i	i	i	i	i
Cc1ccc(C)c(N2CCN(C(=O)CCCN3C(=S)NC(C)(C)CC3C)CC2)c1 (stereo unspecified)	i	3	-3	i	i	i	i	i	i	i
Cc1cc(C)nc(/N=C(\N)Nc2ccc(F)c([N+](=O)[O-])c2)n1	i	9	4	i	i	.	i	i	i	i
COc1ccc2cc([C@H](C)C(=O)O)ccc2c1	i	5	-1	i	i	i	i	i	i	i

Overlap with the part before: two compounds, then new ones.
SMILES	KCNK3 block	Dyrk1A ADPGlo	Platelet DG rel	KCNQ1 inh	TRPC4 inh	PolyA inh	TRPC4 PAM	KCNK9 block	TRPC4 agonist	KCNQ1 act
Cc1cc(C)nc(/N=C(\N)Nc2ccc(F)c([N+](=O)[O-])c2)n1	i	9	4	i	i	.	i	i	i	i
COc1ccc2cc([C@H](C)C(=O)O)ccc2c1	i	5	-1	i	i	i	i	i	i	i
Cc1ccc(S(=O)(=O)Nc2nc(C)cc(NCCN)n2)cc1	i	1	-5	i	i	i	i	i	i	i
CC(C)[C@@H]1COC(c2cccc(C3=N[C@H](C(C)C)CO3)c2)=N1	i	3	-2	i	i	i	i	i	i	i
NC(=O)C1CCN(C(=O)c2ccccc2SCC(=O)NCC2CCCCC2)CC1	i	-6	1	i	i	i	i	i	i	i
CCS(=O)(=O)CCn1c([N+](=O)[O-])cnc1C	i	8	-9	i	i	i	i	i	i	i
CCCC(C)c1nnc(NC(=O)c2cc(C(=O)OC)cc([N+](=O)[O-])c2)s1 (stereo unspecified)	i	-5	-5	i	i	i	i	i	i	i
CN1CCN2c3ncccc3Cc3ccccc3C2C1 (stereo unspecified)	i	-8	17	i	i	i	i	i	i	i
Cc1c(-c2ccc(F)cc2)nc(N)c(C#N)c1-c1cccnc1	i	.	-14	i	i	i	i	i	i	i
CC(C)OC(=O)C(C)(C)Oc1ccc(C(=O)c2ccc(Cl)cc2)cc1	i	-1	1	i	i	i	i	i	i	i
c1coc(CNc2ncnc3nc[nH]c23)c1	i	1	-2	i	i	i	i	i	i	i
CSc1nc(N2CCOCC2)c2c3c(sc2n1)CCC3	i	-2	4	i	i	i	i	i	i	i

Six entries out of the list above, ordered by their value in Platelet DG rel, highest first.
molecule,Platelet DG rel
Cc1ccc(SCc2nc(-c3cccnc3)no2)cc1,10
Cc1cc(C)nc(/N=C(\N)Nc2ccc(F)c([N+](=O)[O-])c2)n1,4
NC(=O)C1CCN(C(=O)c2ccccc2SCC(=O)NCC2CCCCC2)CC1,1
CCSc1nnc(NC(=O)CSc2nnc(Cc3cccn3C)n2-c2ccc(C)cc2)s1,-3
CCCC(C)c1nnc(NC(=O)c2cc(C(=O)OC)cc([N+](=O)[O-])c2)s1 (stereo unspecified),-5
CCS(=O)(=O)CCn1c([N+](=O)[O-])cnc1C,-9

Next entries:
SMILES	KCNK3 block	Dyrk1A ADPGlo	Platelet DG rel	KCNQ1 inh	TRPC4 inh	PolyA inh	TRPC4 PAM	KCNK9 block	TRPC4 agonist	KCNQ1 act
Brc1cccc(OCCCNC2CCCC2)c1	i	5	-1	i	i	i	i	i	i	i
Cc1nccn1C[C@@H]1CCc2c(c3ccccc3n2C)C1=O	i	-1	2	i	i	i	i	i	i	i
CCOC(=O)[C@H](CCc1ccccc1)N[C@H]1CCc2ccccc2N(CC(=O)O)C1=O	i	2	1	i	i	i	i	i	i	i
O=C(CCCN1CC=C(n2c(=O)[nH]c3ccccc32)CC1)c1ccc(F)cc1	i	9	1	i	i	i	i	i	i	i
CC(=O)S[C@@H]1CC2=CC(=O)CC[C@]2(C)[C@H]2CC[C@@]3(C)[C@@H](CC[C@@]34CCC(=O)O4)[C@H]12	i	6	-9	i	i	i	i	i	i	i
CCC(NC(=O)C1C2C=CC(C2)C1C(=O)O)c1ccc(C)cc1 (stereo unspecified)	i	-5	-17	i	i	i	i	i	i	i
Cn1c(=O)c2[nH]cnc2n(C)c1=O	i	5	-3	i	i	i	i	i	i	i
CC(=O)c1ccc(NC(=O)C(C)OC(=O)C(C)Oc2cccc(C)c2)cc1 (stereo unspecified)	i	-2	0	i	i	i	i	i	i	i
CC(=O)OCP(C)(=O)COC(C)=O	i	5	-6	i	i	i	i	i	i	i
O=C(NN=C1CCCCCCCCCCC1)c1cccc(S(=O)(=O)N2CCOCC2)c1	i	-1	-28	i	i	i	i	i	i	i
Cc1cccc2c1-c1sc(C(=O)NCCCN3CCc4ccccc4C3)cc1CO2	-9.6*	2	0	i	i	i	i	i	i	i
CCN1CCC2(CC1)Oc1c(OC)cccc1C1CC(c3cccnc3)=NN12 (stereo unspecified)	i	.	-4	i	i	i	i	i	i	i
Cc1ccc([N+](=O)[O-])cc1NC1CC(O)C(CO)O1 (stereo unspecified)	i	11	-1	i	i	i	i	i	i	i
NS(=O)(=O)c1cc2c(cc1Cl)NC=NS2(=O)=O	i	0	-3	i	i	i	i	i	i	i
Cc1nccn1CC1CCc2c(c3ccccc3n2C)C1=O (stereo unspecified)	i	2&-2	1&-1	i	i	i	i	i	i	i
O=S(=O)(NC1CCCCC1NCc1ccco1)c1ccc(Cl)cc1 (stereo unspecified)	i	7	4	i	i	i	i	i	i	i
Cc1ccc(-c2nc3c(cnn3-c3ccccc3)c(=O)o2)cc1	i	5	5	i	i	i	i	i	i	i
O=C(N/N=C/c1ccc(O)c2ncccc12)c1cccc(Br)c1	i	-4	-3	i	i	i	i	i	i	i
Nc1nc2c(ncn2COCCO)c(=O)[nH]1	i	4	-4	i	i	i	i	i	i	i
Cc1cc(-c2ccc(C)c(S(=O)(=O)NCCCN3CCCCCC3)c2)on1	i	-5	-1	i	i	i	10*	i	i	i
O=C(O)[C@@H]1CCCC[C@@H]1C(=O)N1CCc2ccccc2C1CN1C(=O)c2ccccc2C1=O (stereo partly specified)	i	-1	.	i	i	i	i	i	i	i
CSc1ccc(S(=O)(=O)NCc2ccccc2Cl)cc1	i	-6	2	i	i	i	i	i	i	i
CCC[C@@H]1C[C@@H](C(=O)NC(C(C)Cl)[C@H]2O[C@H](SC)[C@H](O)[C@@H](O)[C@H]2O)N(C)C1 (stereo partly specified)	i	-5	0	i	i	i	i	i	i	i
COc1ccc(C(=O)O/N=C/c2ccc(S(=O)(=O)c3ccc(Cl)cc3)nc2)cc1	i	-4	3	i	i	i	i	i	i	i
CC(C)c1cc(C(C)C)c(S(=O)(=O)N2c3ccccc3[C@@]3(Br)C[C@H]4C(=O)N[C@@H](Cc5ccccc5)C(=O)N4[C@@H]23)c(C(C)C)c1	.	.	-9	i	i	i	i	i	i	i
CNCC(O)c1ccc(O)c(O)c1 (stereo unspecified)	i	-2	-3	i	i	i	i	i	i	i
O=Cc1cccn1Cc1ccccc1[N+](=O)[O-]	i	-2	-7	i	i	i	i	i	i	i
O=C(NC1CCCC1)c1cc(Cl)ccc1[N+](=O)[O-]	i	1	-9	i	i	i	i	i	i	i
CCN(c1ccc(NC(=O)COC(=O)c2ccc(S(=O)(=O)N3CCCC3)cc2)cc1)C(C)C	i	-2	2	i	i	i	i	i	i	i
OC[C@@H](O)[C@@H](O[C@H]1O[C@H](CO)[C@@H](O)[C@H](O)[C@H]1O)[C@H](O)[C@@H](O)CO	i	0	-2	i	i	i	i	i	i	i
COCCNC(=O)CSc1nc2scc(-c3ccccc3)c2c(=O)[nH]1	i	.	-10	i	i	i	i	i	i	i
CCN(CC)CCCNC(=O)c1ccc2c(SCC(=O)O)c3c(nc2c1)CCC3	.	.	-1	i	i	i	i	i	i	i
CCC(C)n1c(C)nc2c(c1=O)c1nc3ccccc3nc1n2CCC1=CCCCC1 (stereo unspecified)	i	-6	1	i	i	i	i	i	i	i
COc1ccc(Nc2cc(C(=O)NC3CCCC3)c3ccccc3n2)c(OC)c1	i	-2	-2	i	i	i	i	i	i	i
COc1ccc(CN(Cc2cccn2C)S(=O)(=O)c2ccccc2)cc1	i	2	3	i	i	i	i	i	i	i
CN(C)CCCOc1nn(Cc2ccccc2)c2ccccc12	i	2	1	i	i	i	i	i	i	i
Nc1cc(Nc2ccc(Br)cc2)nc(N)n1	i	4	-5	i	i	i	i	i	i	i
CCOc1cc(C(=O)N2CCN=C2SC)cc(OCC)c1OCC	i	-3	5	i	i	i	i	i	i	i
CNCC(=O)O	i	2	.	.	.	.	.	.	.	.

Reformatted: entries from further up
compound: CCOc1cc(C(=O)N2CCN=C2SC)cc(OCC)c1OCC
  KCNK3 block = i; Dyrk1A ADPGlo = -3; Platelet DG rel = 5; KCNQ1 inh = i; TRPC4 inh = i; PolyA inh = i; TRPC4 PAM = i; KCNK9 block = i; TRPC4 agonist = i; KCNQ1 act = i
compound: CNCC(=O)O
  KCNK3 block = i; Dyrk1A ADPGlo = 2; Platelet DG rel = .; KCNQ1 inh = .; TRPC4 inh = .; PolyA inh = .; TRPC4 PAM = .; KCNK9 block = .; TRPC4 agonist = .; KCNQ1 act = .

This is a subset; the hit share may differ from the screen's.
